Mtb growth: Mycobacterium tuberculosis H37Rv growth inhibition, putative kinase inhibitor library, confirmatory dose response (AID 2842); inhibition, % at 10 µg/mL, or IC90 in µg/mL where a hit was titrated; M. tuberculosis H37Rv growth inhibition; higher % means a stronger effect; some inactives read as strong as hits; 24,000 compounds, 5.2% hits;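 active = confirmed in a dose series; about a fifth of its hits are not listed in these tables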;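 also: bacteria incubated one week before Alamar blue readout; 0% = bacteria only wells and 100% = bacteria with high antibiotic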
An asterisk follows results filed as active. Some of the compounds tested. The share of hits here may be higher or lower than overall.

SMILES	Mtb growth
O=C(COc1cccc2c1CCNC2=O)Nc1cccc([N+](=O)[O-])c1	-9%
CN1C(=O)c2cccc(NC(=O)C3CCCCC3)c2C1=O	2%
Cc1ccc(-c2nnc(NC(=O)COc3ccccc3)o2)c(C)c1	5.5µg/mL*
COc1cccc(C(=O)NCCc2cc3ccc(C)cc3[nH]c2=O)c1	1%
COc1cc(C(=O)/C(=C/c2ccccc2F)c2nc3ccccc3o2)cc(OC)c1OC	5%
Cc1cc2cc(CCNC(=O)CC(C)C)c(=O)[nH]c2cc1C	-8%
O=C(Nc1cc(Cl)ccc1Cl)c1c[nH]c(=O)n(-c2ccccc2)c1=O	18%
NC(=O)c1nc(C2CCCCC2)nc2c1[nH]c(=O)n2-c1ccc2c(c1)OCO2	15%
CCOc1ccc(-n2nnc3c(=O)n(CC(=O)N4CCCc5ccccc54)cnc32)cc1	-9%
CCn1cc(SCC(=O)NCc2ccccc2)c2ccccc21	-4%
O=C(CSc1nc2sc3c(c2c(=O)[nH]1)CCCC3)NCc1ccco1	-3%
COc1ccccc1Cn1c(=S)[nH]c2cc(C(=O)N3CCCCC3)ccc2c1=O	3%
O=C(Nc1ccc2c(c1)OCCO2)c1oc2ccccc2c1NC(=O)C1CC1	1%
O=C(Nc1nnc(-c2ccccn2)o1)c1cccc(F)c1	3.5µg/mL*
Cc1cccc(OCCn2c(C3CC(=O)N(c4ccccc4C)C3)nc3ccccc32)c1 (stereo not drawn)	64%
COC(=O)c1ccc(Oc2cn[nH]c2-c2ccc(O)cc2O)cc1	13%
O=C(c1c[nH]c(=O)n(-c2ccc(F)cc2)c1=O)N1CCc2ccccc21	-3%
Cc1cccc(NC(=O)c2sc3nc4c(c(-c5ccco5)c3c2N)CCCC4)c1	4%
CC(=O)Cn1cnc2scc(-c3cccc([N+](=O)[O-])c3)c2c1=O	7%
O=C(O)CCN1C(=O)C2C3CC(C2C1=O)C1C(c2ccccc2)c2sc(=O)[nH]c2SC31 (stereo not drawn)	-5%
O=C(Nc1nnc(-c2ccccc2Cl)s1)c1cccc(Cl)c1	0%
Cc1cc(C)c2nc(NC(=O)c3coc4ccccc4c3=O)sc2c1	-6%
COc1ccc(-c2nnc3c4cc(OC)c(OC)cc4n(Cc4ccccc4)cc2-3)cc1	11µg/mL*
Cc1ccc(-c2nnc(NC(=O)COc3ccccc3)s2)cc1	7%
Cc1ccccc1-n1nc2c(c1NC(=O)c1cc3ccccc3oc1=O)CSC2	82%
COc1cc(/C=C2/SC(=S)N(Nc3ccc([N+](=O)[O-])cc3[N+](=O)[O-])C2=O)ccc1O	-9%
Cc1nnc(SCc2cccc(Cl)c2)n(N)c1=O	9%
O=C(CSc1n[nH]c(-c2ccccc2)n1)c1ccccc1	12%
COc1cccc(-c2nnc(Nc3nc4c(OC)cccc4s3)o2)c1	4%
CCOC(=O)C(C)Oc1ccc2c(c1)O/C(=C\c1cc(OC)c(OC)c(OC)c1)C2=O (stereo not drawn)	0%
O=C(NCCc1ccc(Cl)cc1)C(=O)Nc1ccc(F)c(F)c1	6%
O=C(Nc1nnc(-c2ccc(Br)cc2)s1)c1c(F)cccc1F	3%
O=C1NC(=S)NC(=O)C1=Cc1ccc(-c2ccc(F)cc2)o1	63%
Cn1c(=O)c2c(SCc3ccccc3F)nc(-c3ccco3)nc2n(C)c1=O	-8%
CN(C)CCOC(=O)NC1CC(=O)N(c2ccc3c(c2)OCCO3)C1 (stereo not drawn)	-4%
CC(=O)Cn1c(=O)c2c(nc3n(-c4ccc(C)cc4C)c(C)cn23)n(C)c1=O	-11%
O=C(Nc1nnc(C23CC4CC(CC(C4)C2)C3)s1)c1ccc(S(=O)(=O)N2CCCC2)cc1	0%
CC(C)CCNC(=O)C(=O)Nc1cc2c3c(c1)CC(=O)N3CCC2	1%
Cc1ccc(-c2nnc(NC(=O)/C=C/c3ccccc3Cl)o2)c(C)c1	-6%
COc1ccc(OC)c(NC(=O)CSc2nc3c([nH]c4ccccc43)c(=O)n2-c2ccc([N+](=O)[O-])cc2)c1	65%
CC(C)c1nnc(NC(=O)CCCOc2ccc(Cl)cc2)s1	-16%
O=C(CSc1nccn(-c2ccc(Cl)cc2)c1=O)c1ccccc1	-3%
COc1ccc2nc(Nc3nnc(-c4ccccc4Cl)o3)sc2c1	64%
Nc1ncnc(NNC(=O)CNC(=O)c2ccccc2)c1[N+](=O)[O-]	13%
CC(=O)NC(Cc1c[nH]c2ccccc12)C(=O)Nc1nc(C)c(C)s1 (stereo not drawn)	-12%
CC(Nc1n[nH]c(=O)[nH]c1=O)C(=O)N/N=C/c1ccccc1 (stereo not drawn)	-12%
COc1ccc2nc(-c3cccc(NC(=O)c4ccc(F)cc4F)c3)cn2n1	-6%
Cc1ccc(C)c(-c2nnc(NC(=O)c3ccc(OC(C)C)cc3)o2)c1	33µg/mL*
O=C(CCCl)Nc1c(C(=O)Nc2ccccc2)oc2ccccc12	-8%
CCC(CC)C(=O)Oc1cc(C)[nH]c(=O)c1[N+](=O)[O-]	2%
O=C1NCCc2c(OCc3cccc(C(F)(F)F)c3)cccc21	-12%
O=C(Nc1nc(-c2cc(Cl)ccc2Cl)cs1)c1ccc(N2C(=O)CCC2=O)cc1	19%
Cc1ccc(F)cc1Nc1ncnc(N)c1[N+](=O)[O-]	1%
Cc1nc2c(ccc3nc(NC(=O)c4ccco4)sc32)s1	35µg/mL*
CC1CN(c2ncnc3c2cnn3C)CC(C)O1 (stereo not drawn)	-18%
Cc1ccc(-n2c(=O)[nH]c3c(C(N)=O)nc(-c4ccccc4F)nc32)cc1C	-26%
CCn1c(=O)cc(N2CCCCC2)[nH]c1=O	-6%
COc1ccc(S(=O)(=O)c2nnn3c2nc(Nc2ccc(C)cc2)c2ccccc23)cc1	9%
COc1ccc(-c2nnc(Nc3nc4cc(OC)ccc4s3)o2)cc1	3%
COc1ccc(Cl)cc1NC(=O)CSc1nc(-c2ccco2)nc2c1c(=O)n(C)c(=O)n2C	-1%

For reference, some entries already given:
SMILES	Mtb growth
CCn1c(=O)cc(N2CCCCC2)[nH]c1=O	-6%
COc1ccc(S(=O)(=O)c2nnn3c2nc(Nc2ccc(C)cc2)c2ccccc23)cc1	9%
COc1ccc(-c2nnc(Nc3nc4cc(OC)ccc4s3)o2)cc1	3%
COc1ccc(Cl)cc1NC(=O)CSc1nc(-c2ccco2)nc2c1c(=O)n(C)c(=O)n2C	-1%

Shown as labelled records: 4 of the compounds above
Cc1cc2cc(CCNC(=O)CC(C)C)c(=O)[nH]c2cc1C
  Mtb growth: -8%

O=C(Nc1cc(Cl)ccc1Cl)c1c[nH]c(=O)n(-c2ccccc2)c1=O
  Mtb growth: 18%

NC(=O)c1nc(C2CCCCC2)nc2c1[nH]c(=O)n2-c1ccc2c(c1)OCO2
  Mtb growth: 15%

CCOc1ccc(-n2nnc3c(=O)n(CC(=O)N4CCCc5ccccc54)cnc32)cc1
  Mtb growth: -9%

(list continues)
SMILES	Mtb growth
O=C(COc1cccc2c1CCNC2=O)NC1CCCC1	-12%
COc1cccc(C(=O)NCCc2cc3ccc(C)cc3[nH]c2=O)c1OC	-1%
Cc1nc2ncccn2c1-c1csc(Nc2ccccc2)n1	55%
COc1ccc(-n2c(SCC(=O)N3CCOCC3)nc3c([nH]c4ccccc43)c2=O)cc1	8%
O=C(CSc1ncnc2c1oc1ccccc12)NCC1CCCO1 (stereo not drawn)	9%
O=C(N/N=C/c1cc(=O)[nH]c(=O)[nH]1)Nc1ccccc1	5%
O=C(CCCCn1c(=O)[nH]c2ccsc2c1=O)NCc1ccc2c(c1)OCO2	2%
Cn1c(=O)c2[nH]c(SCc3ccc(Cl)c(Cl)c3)nc2n(C)c1=O	9%
CCOc1cnc(C(=O)NNC(=O)c2ccccc2Cl)o1	-4%
O=C(Nc1c(C(=O)Nc2ccc(OC(F)(F)F)cc2)oc2ccccc12)c1cc(Br)ccc1Cl	-1%
CCOC(=O)c1ccsc1NC(=O)c1ccc([N+](=O)[O-])cc1	-3%
Cc1c(-c2n[nH]c(=S)n2C)sc2nc3n(c(=O)c12)CCC3	-12%
Cc1ccc(OCC(O)Cn2c(N(C)C)nc3c2c(=O)[nH]c(=O)n3C)cc1C (stereo not drawn)	-17%
O=S(=O)(c1ccccc1)N1CCN=C1SCc1cccnc1	10%
Cn1c(=O)c2c(nc(N3CCCCCC3)n2CCSc2ncccn2)n(C)c1=O	10%
CS(=O)(=O)c1ccc(-c2nnc(NC(=O)c3ccc(Br)cc3)o2)cc1	69%
COc1ccc(Cn2cc(S(=O)(=O)c3ccc(Cl)cc3)c(=O)c3cc(F)ccc32)cc1	-10%
Cc1cccc(Cn2c(N3CCN(Cc4ccc(Cl)cc4)CC3)nc3c2c(=O)[nH]c(=O)n3C)c1	3.1µg/mL*
Cc1cc(NC(=O)CSc2nnc3ccccn23)no1	-12%
Cc1ccc(S(=O)(=O)N2CCCc3ccc(NC(=O)c4ccc([N+](=O)[O-])cc4)cc32)cc1	-2%
COc1ccc(-c2csc(NC(=O)c3ccc4c(c3)OCCO4)n2)cc1	0%
Nc1cc(=O)[nH]c(SCC(=O)NC2CCCCC2)n1	-3%
COC(=O)c1ccc(/C=C2\SC(=S)N(C(CC(=O)O)C(=O)O)C2=O)cc1 (stereo not drawn)	-24%
O=C(Nc1cccc(F)c1)c1cnc2sccn2c1=O	13%
O=C(Nc1ccccc1)c1cnc2sccn2c1=O	-3%
Cc1cccc(NC(=O)CSc2nc3c(cc2C#N)C(=O)CC(C)(C)C3)c1	6%
CCOc1ncccc1C(=O)Nc1cccc(-c2ccc3nncn3n2)c1	-15%
C=CCn1c(=O)c2c(nc3n(-c4cc(C)ccc4OC)c(-c4ccccc4)cn23)n(C)c1=O	-10%
O=c1[nH]c(N/N=C/C=C/c2ccccc2)nnc1-c1ccccc1	16%
CCOc1cccc2c1CCNC2=O	-8%
CC1CCN(C(=O)CSc2ccc3nnc(-c4ccc(F)cc4)n3n2)CC1	3%
Cc1cccc(Cn2c(SCCO)nc3c2c(=O)n(C)c(=O)n3C)c1	7%
CCCSc1nc2c(c(=O)[nH]1)C(c1ccc(Cl)cc1)C1=C(CCCC1=O)N2 (stereo not drawn)	68%
Cc1onc(-c2ccccc2Cl)c1C(=O)Nc1ccccc1C(N)=O	9%
Cc1nc2sc(C(c3ccc(Cl)cc3)N3CCC(O)CC3)c(O)n2n1 (stereo not drawn)	-7%
OCCCc1nc2n(n1)C(c1cccc(Br)c1)C=C(c1ccc(Br)cc1)N2 (stereo not drawn)	61%
Cc1nc2nc[nH]n2c(=O)c1CC(=O)O	-1%
CCOC(=O)c1nn(-c2ccccc2)c(=O)c2c(NC(=O)Cc3ccc(OC)c(OC)c3)scc12	-9%
CCOC(=O)c1csc(NC(=O)c2ccccc2)n1	12%
O=C(CSc1ccc2nnc(CCNC(=O)c3ccc(F)cc3)n2n1)Nc1cccc([N+](=O)[O-])c1	-6%
Cc1ccc(-c2nnc3ccc(SCC(=O)Nc4ccc(F)cc4)nn23)cc1	2%
CCCC(=O)NCCc1cc2cc(C)c(C)cc2[nH]c1=O	-6%
CC(=O)Oc1cc(OC(C)=O)c2c(-c3ccc([N+](=O)[O-])cc3)cc(=O)oc2c1	-3%
N#Cc1ccccc1NC(=O)C(=O)NCC1COC2(CCCCC2)O1 (stereo not drawn)	3%
CCc1ccc(N2C(=O)NC3CC2(C)Oc2ccccc23)cc1 (stereo not drawn)	6%
NC(=O)COc1ccc(/C=c2\sc3nc(-c4ccccc4Br)nn3c2=O)cc1	-6%
O=C(CSc1nc2c(cnn2-c2ccccc2)c(=O)[nH]1)Nc1cccc([N+](=O)[O-])c1	4%
Cc1ccc2cc(CCNC(=O)C(C)(C)Oc3ccc(Cl)cc3)c(=O)[nH]c2c1C	-6%
Cc1ccc(NC(=O)CSc2nnc(C)c(=O)n2N)cc1C	-6%
C=CCOc1ccc(C2NC(=O)c3c(sc4c3CCCC4)N2)cc1OC (stereo not drawn)	3%
Cc1ccc(-n2ncc3c(=O)n(CC(=O)Nc4ccc(C(F)(F)F)cc4)cnc32)cc1C	-4%
Cc1ccc(-c2csc(NC(=O)c3ccc(S(=O)(=O)N(C)c4ccccc4)cc3)n2)cc1C	8%
COCCn1c(SCc2ccccc2)nc2c1c(=O)[nH]c(=O)n2C	16%
COc1cccc(C(=O)Nc2ccc3c(c2)C(=O)NC3=O)c1	-12%
O=c1[nH]nc(SCc2ccccc2Cl)c(=S)[nH]1	20%
Cc1c(Cl)cccc1N1CCn2c1nc1c2c(=O)n(CC(=O)O)c(=O)n1C	-4%
CCOC(=O)c1c(NC(=O)CSc2nc3c([nH]c4ccccc43)c(=O)n2-c2ccc(OCC)cc2)sc2c1CCCCC2	9%
COc1ccccc1NC(=O)CSc1nc(N)c(NC(=O)c2ccc(F)c(F)c2)c(=O)[nH]1	-5%
Cc1ccc2cc(CCNC(=O)C(C)Oc3ccccc3)c(=O)[nH]c2c1 (stereo not drawn)	-1%
CCOc1ccc(C(=O)Nc2ccc3sc(SC)nc3c2)cc1	63%
New compounds follow
SMILES	Mtb growth
CN(C)S(=O)(=O)c1ccc(C(=O)Nc2nc(-c3cc4ccccc4oc3=O)cs2)cc1	-12%
Cc1cccc(-n2ccnc2SCC(=O)NCc2ccc3c(c2)OCO3)c1	13%
Cn1c(=O)c2c(nc(SCC(=O)O)n2Cc2ccccc2)n(C)c1=O	-16%
Cn1c(=O)c2c(SCC(=O)Nc3ccc([N+](=O)[O-])cc3)nc(-c3cccs3)nc2n(C)c1=O	2%

Structures shown so far containing a CF3 group (3):
SMILES	Mtb growth
O=C1NCCc2c(OCc3cccc(C(F)(F)F)c3)cccc21	-12%
O=C(Nc1c(C(=O)Nc2ccc(OC(F)(F)F)cc2)oc2ccccc12)c1cc(Br)ccc1Cl	-1%
Cc1ccc(-n2ncc3c(=O)n(CC(=O)Nc4ccc(C(F)(F)F)cc4)cnc32)cc1C	-4%
